ALR H2O2 inh: blocks human ALR sulfhydryl oxidase activity. purified ALR, DTT oxidation, H2O2 HRP-luminol luminescence. inhibition, % (no concentration beside the values). 290,000 compounds, 3.8% hits;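 active = mean and each replicate at 75% or more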;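 note: stock transfer was 7.5 nL into about 7.5 µL; 0% = neutral wells and 100% = wells with inactivated enzyme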
Target sequence (P55789 whole entry, looked up): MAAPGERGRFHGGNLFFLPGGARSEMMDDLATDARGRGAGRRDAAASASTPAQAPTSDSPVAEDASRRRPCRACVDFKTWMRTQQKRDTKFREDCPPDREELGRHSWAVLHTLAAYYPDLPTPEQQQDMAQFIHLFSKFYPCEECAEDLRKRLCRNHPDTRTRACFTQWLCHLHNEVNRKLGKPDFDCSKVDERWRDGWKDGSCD
Ecoli growth: E. coli growth inhibition; Escherichia coli growth, OD600, 23 h; hits give low values; AID 1053175; 330,000 compounds, 0.21% hits; OD600 absorbance (test concentration not listed);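 active = OD600 absorbance below the run mean of sample wells minus 3.6 SD, in any replicate, cut at about 0.56 in these data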;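 note: stock transfer was 300 nL into about 60 µL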
UCH37 inh: blocks the human deubiquitinase UCH37. Q9Y5K5. purified proteasome/UCH37, Ub-AMC cleavage fluorescence. inhibition, % (test concentration not listed). 330,000 compounds, 0.33% hits. AID 588478;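 active = mean of two replicates above 20%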;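 note: 0% = compound-free wells with enzyme and 100% = wells lacking proteasome; stock transfer was 100 nL into about 20 µL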
Target sequence (Q9Y5K5 whole entry, looked up): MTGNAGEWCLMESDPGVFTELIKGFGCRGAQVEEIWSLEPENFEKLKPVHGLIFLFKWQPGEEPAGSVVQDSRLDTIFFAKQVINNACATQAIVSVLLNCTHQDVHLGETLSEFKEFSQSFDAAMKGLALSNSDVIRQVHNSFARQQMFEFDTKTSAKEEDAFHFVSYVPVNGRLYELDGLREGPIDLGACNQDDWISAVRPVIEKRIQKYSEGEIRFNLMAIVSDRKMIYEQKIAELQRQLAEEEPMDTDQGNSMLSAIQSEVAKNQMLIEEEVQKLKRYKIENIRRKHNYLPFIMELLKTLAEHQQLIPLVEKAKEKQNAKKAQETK
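Schedule: 30 min plus 25 min, room temperature / Material: human UCH37 within purified proteasomes / Technique: AMC fluorescence intensity at 355/460 nm / Buffer or medium: pH 7.4 Tris-HCl (50 mM) with ovalbumin, ATP-MgCl2, DTT / Controls: wells without proteasome as full block, compound-free enzyme plus substrate as uninhibited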
FGF22 binding: binders of recombinant human FGF22 by thermal shift; Q9HCT0; SYPRO orange fluorescence; percent of sucrose octasulfate shift, DMSO zero; calls only at 9.99 µM; 340,000 compounds, 1.5% hits; AID 651658;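 active = melting point raised past a set limit in the mean and every replicate; three in four hits are not shown here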
Target sequence (Q9HCT0 whole entry, looked up): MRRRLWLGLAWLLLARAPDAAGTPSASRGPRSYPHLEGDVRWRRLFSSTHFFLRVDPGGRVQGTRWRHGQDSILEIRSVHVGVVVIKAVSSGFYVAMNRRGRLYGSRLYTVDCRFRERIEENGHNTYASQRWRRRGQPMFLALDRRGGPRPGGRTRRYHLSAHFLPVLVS
Ecoli rRNA inh: inhibits bacterial ribosomal RNA function over humanized ribosomes. AID 720706. E. coli WT GFP vs humanized-ribosome RFP mutants, fluorescence, 24 h; hits give low values; DMSO median 0, no signal -100. GFP signal change (wild-type ribosome), % (concentration not given with the values). 350,000 compounds, 1.6% hits;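 active = significant combined selectivity score with lowered wild-type GFP, culture density cut under 30%, mutant RFP and density less affected; inactive = any of these conditions unmet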; note: one replicate is shown; some compounds called inactive have numbers as strong as hits
Beta2AR agonist: agonists of human beta-2 adrenergic receptor inducing internalization. P07550. Am2.2-beta2AR cells, FAP receptor internalization, flow cytometry; reference of the scale not given here. response, % (no concentration beside the values). 340,000 compounds, 0.43% hits;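 active = response above a set limit, near 3 SD of response in nonfluorescent compounds, cut at about 42% in these data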;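 note: stock transfer was 100 nL into about 11 µL; a reference agonist was the positive control; negative values mostly stem from fluorescent compounds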
HNF4A DNA FP: change in binding of human HNF4 alpha to DNA. P41235. HNF4a-FITC DNA binding, fluorescence polarization, 1 h. activity change, % at 10 µM. 360,000 compounds, 0.3% hits. AID 1224865; in the data active = activity change above about 30%, passing the limit was not always enough;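 note: controls were the assay level and a saturating level of protein; the project sought stronger binding though the title names inhibitors; some compounds called inactive have numbers as strong as hits; positive values seem to mean higher polarization but the record does not say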
Ecoli rRNA inh OD600: further read-out of Ecoli rRNA inh, marked with its call; OD600 change, %; measured here: OD600 growth;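 optical density of the mix in the first replicate; 0 = DMSO median and -100 = no signal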
Ecoli rRNA inh RFP: recorded beside Ecoli rRNA inh, whose call it bears; RFP signal change, %; measured here: RFP humanized mutant strains;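 first replicate; 0 = DMSO median and -100 = no signal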
The depositor's hits bear a star; i = inactive; nt = no result given. These rows are one share of the data. The share of hits here may be higher or lower than overall.

SMILES | ALR H2O2 inh | Ecoli growth | UCH37 inh | FGF22 binding | Ecoli rRNA inh | Ecoli rRNA inh OD600 | Ecoli rRNA inh RFP | Beta2AR agonist | HNF4A DNA FP
COc1ccc2nc(N=NC3=C(O)CC(C)(C)CC3=O)sc2c1 | -11 | 0.66 | 14 | i | -10 | -8 | 0.6 | 11 | 3.0
Cc1ccc(N(CC(=O)NCCc2ccccc2)S(=O)(=O)c2c(C)noc2C)cc1 | -2 | 0.68 | 2.0 | i | 15 | 7 | -0.2 | -4 | -0.8
O=C(O)/C=C/c1ccc2ccccc2n1 | 2 | 0.69 | 0.7 | nt | nt | nt | nt | 5 | -0.6
CCn1c(SC2CCOC2=O)nnc1-c1ccc(Cl)cc1 (stereo unspecified) | 3 | 0.72 | -1.3 | i | 6 | -3 | -4.7 | 1 | -1.4
COc1ccc(N(C)C(=O)CC2(CC(=O)O)CCCCC2)cc1 | -7 | 0.72 | -5.1 | nt | nt | nt | nt | 0 | 21
Cc1csc(N2C(=O)C3C4CCC(O4)C3C2=O)n1 (stereo unspecified) | nt | nt | nt | i | 21 | 18 | -0.4 | -2 | -1.6
CCOc1ccc(-n2c(SCC(=O)Nc3nccs3)nc3c(c2=O)SCC3)cc1 | -2 | 0.7 | 1.0 | i | 2 | 9 | 0.5 | -14 | 5.6
Cc1cccc(OCC(=O)OCC(=O)c2c(N)n(C)c(=O)n(C)c2=O)c1C | -2 | 0.71 | 1.9 | nt | nt | nt | nt | 4 | -3.7
COCCCN=C1NN=C(c2cc(C)n(-c3ccccc3)c2C)CS1 | -22 | 0.72 | 0.3 | i | 8 | 6 | 0.5 | -3 | 0.9
CCC(C)NCCOc1ccc(C)cc1[N+](=O)[O-] (stereo unspecified) | nt | 0.7 | 4.0 | i | 16 | -8 | -2.8 | -1 | -2.0
CCC(=O)NC(C)C(c1cccs1)N1CCOCC1 (stereo unspecified) | -2 | 0.7 | 4.9 | nt | nt | nt | nt | 6 | 1.3
O=C1NC[C@H](CCCCN2CCN(Cc3ccccc3)C(=O)C2=O)N(CCc2ccc(O)cc2)C1=O | nt | nt | nt | i | 19 | 13 | 1.2 | nt | 3.6
CCOC(=O)CNC(=O)N1CCCC(CNS(=O)(=O)c2cccs2)C1 (stereo unspecified) | -4 | 0.64 | 2.0 | i | 7 | 9 | -0.9 | -6 | -5.6
CCOC(=O)N1CCC(N2CCCC(C(=O)c3cc(F)ccc3OC)C2)CC1 (stereo unspecified) | 1 | 0.71 | -6.6 | i | -2 | -2 | -0.4 | -1 | -1.4
O=C(NC1CC1)C1CCN(c2ncnc3c2sc2cccc(F)c23)CC1 | -19 | 0.76 | -8.6 | i | 2 | 0 | 0.4 | 2 | 3.4
COC(=O)c1c(NC(=O)CN2C(=O)NC3(CCCCC3C)C2=O)sc2c1CCC2 (stereo unspecified) | 5 | 0.69 | -2.6 | i | 0 | 0 | 7.9 | 13 | 1.8
O=P(COCCOCP(=O)(c1ccccc1)c1ccccc1)(c1ccccc1)c1ccccc1 | -3 | 0.71 | 5.2 | nt | nt | nt | nt | 22 | -1.7
O=C(CSCc1c(Cl)cccc1Cl)NCc1ccco1 | 5 | 0.69 | -0.4 | nt | nt | nt | nt | -2 | 0.6
O=C(CNC(=O)c1ccccc1O)N/N=C/c1ccccn1 | 11 | nt | nt | i | 8 | 2 | -0.7 | -10 | -0.2
CCOc1cc(N2CCOCC2)c(OCC)cc1NC(=O)c1[nH]c(C)c(C(C)=O)c1C | nt | 0.71 | 2.6 | i | nt | nt | nt | -4 | -1.6
CCOC(=O)c1cnc(N)nc1C(F)(F)F | -13 | 0.71 | 3.5 | i | 5 | -10 | -0.5 | -4 | 3.0
CC(C)(C)C(=O)NN=C1CCC(c2ccccc2)CC1 (stereo unspecified) | -7 | 0.73 | 4.1 | i | 17 | 17 | -0.6 | -10 | 3.2
O=C(CCc1nnc(COc2ccccc2)o1)NCc1ccccc1C(F)(F)F | nt | 0.67 | 2.0 | i | -2 | 1 | 1.7 | -7 | 2.8
COc1ccccc1N(CC(=O)NCCSCc1ccccc1Cl)S(C)(=O)=O | -40 | 0.68 | 4.6 | i | -14 | -16 | 3.3 | -2 | -0.4
CCOc1ccccc1NC(=O)C(=O)N/N=C/c1cc(Br)ccc1O | -6 | nt | nt | i | 9 | 13 | -1.4 | 13 | 1.1
O=C(Cn1nnc(-c2ccc(Cl)cc2)n1)NC1CCN(Cc2ccccc2)CC1 | 8 | 0.7 | 0.6 | nt | nt | nt | nt | 1 | -2.3
COC(=O)c1c(-n2cnnn2)sc(C)c1C | -10 | 0.68 | -17 | nt | nt | nt | nt | 8 | -0.4
O=C(Cc1ccc(OCc2ccccc2)cc1)NCc1ccc2c(c1)OCO2 | nt | nt | nt | i | 13 | 13 | 2.4 | nt | -2.2
Cc1c(-n2cc(C(=O)c3cc(F)ccc3O)cc(C#N)c2=O)c(=O)n(-c2ccccc2)n1C | 6 | 0.77 | 9.2 | i | 18 | 12 | 2.0 | -1 | 15
O=C(O)C1CCCCC1C(=O)NCCCn1ccnc1 (stereo unspecified) | -9 | 0.74 | 0.4 | i | 11 | 13 | -2.0 | -8 | -3.0

Record cards, as listed above:
CCOc1cc(N2CCOCC2)c(OCC)cc1NC(=O)c1[nH]c(C)c(C(C)=O)c1C is entered as ALR H2O2 inh = nt; Ecoli growth = 0.71; UCH37 inh = 2.6; FGF22 binding = i; Ecoli rRNA inh = nt; Ecoli rRNA inh OD600 = nt; Ecoli rRNA inh RFP = nt; Beta2AR agonist = -4; HNF4A DNA FP = -1.6
CCOC(=O)N1CCC(N2CCCC(C(=O)c3cc(F)ccc3OC)C2)CC1 (stereo unspecified) is entered as ALR H2O2 inh = 1; Ecoli growth = 0.71; UCH37 inh = -6.6; FGF22 binding = i; Ecoli rRNA inh = -2; Ecoli rRNA inh OD600 = -2; Ecoli rRNA inh RFP = -0.4; Beta2AR agonist = -1; HNF4A DNA FP = -1.4

Continued.
SMILES | ALR H2O2 inh | Ecoli growth | UCH37 inh | FGF22 binding | Ecoli rRNA inh | Ecoli rRNA inh OD600 | Ecoli rRNA inh RFP | Beta2AR agonist | HNF4A DNA FP
Cc1cccc(C2c3[nH]c4ccccc4c3CCN2C(=O)c2noc3c2CCCC3)n1 (stereo unspecified) | -9 | 0.64 | 2.1 | i | -7 | 0 | -1.2 | 0 | -0.3
O=C(NCCOc1ccc(Cl)cc1)C(=O)NCC1CCCO1 (stereo unspecified) | 5 | 0.7 | 3.9 | i | 5 | 9 | -8.5 | 8 | 2.9
COC(=O)C1=C(N)Oc2cc(C)n(CCCn3ccnc3)c(=O)c2C1c1cccc(Cl)c1 (stereo unspecified) | nt | 0.72 | 0.2 | nt | nt | nt | nt | -6 | 2.9
CCC(Sc1nc(-c2ccccc2)c(C#N)c(=O)[nH]1)C(=O)Nc1nnc(C)s1 (stereo unspecified) | 8 | 0.7 | 3.8 | nt | nt | nt | nt | -12 | -0.1
O=C(c1ccco1)N(Cc1ccccc1)c1cccc([N+](=O)[O-])c1 | 1 | 0.73 | 1.0 | i | 14 | 12 | 0.5 | -6 | -5.6
Cc1c(NC(=O)CSc2n[nH]c(-c3ccccc3)n2)c(=O)n(-c2ccccc2)n1C | 14 | 0.68 | -0.3 | nt | nt | nt | nt | -4 | 5.6
COc1ccc(NC(=O)C2CC(c3c(F)cccc3Cl)=NO2)cc1 (stereo unspecified) | nt | 0.72 | 0.8 | nt | -10 | -16 | -2.0 | -1 | 2.5
CCOC(=O)C1=C(C)Nc2ccccc2N/C1=N\S(=O)(=O)c1ccc(Cl)cc1 | 5 | 0.71 | 2.0 | i | -11 | -14 | -8.4 | 10 | 2.4
O=C(C[n+]1cc(-c2ccc(Cl)cc2)n2c1CCCCC2)c1ccccc1 | -5 | 0.68 | 1.5 | i | -51* | -29* | -14* | -2 | 2.2
O=C(NCC12CC3CC(CC(C3)C1)C2)c1nn2cccnc2c1Cl | 10 | 0.69 | -1.0 | nt | nt | nt | nt | -17 | 6.7
O=C(COc1ccccc1)Nc1ccc(N2CCCCC2)cc1 | 1 | 0.67 | 3.0 | i | 3 | 5 | 0.2 | 4 | 0.6
COC(=O)c1cn(NC(=O)/C=C/c2cc(OC)ccc2OC)c(=O)c2ccccc12 | -17 | 0.69 | -190 | nt | nt | nt | nt | -5 | -4.8
CCCCN(C(=O)CSc1nnnn1C)c1c(N)n(Cc2ccccc2)c(=O)[nH]c1=O | -5 | 0.68 | 1.7 | i | 5 | 5 | -2.6 | -3 | -3.7
Cc1cccc(OCC(=O)Nc2ccc(N3CCN(S(C)(=O)=O)CC3)cc2)c1 | -7 | 0.72 | 2.8 | nt | nt | nt | nt | 7 | 3.8
CCOC(=O)C1CCN(C(=O)C2(NC(=O)Nc3ccccc3C)CCCCC2)CC1 | -8 | 0.69 | 4.6 | i | 6 | 5 | -2.7 | 0 | 1.3
COc1ccc(NC(=O)CN(C)C(=O)c2cn(-c3ccccc3)nc2-c2ccc(OC)cc2)cc1 | -6 | 0.69 | 3.4 | i | nt | nt | nt | -3 | 0.2
CCOc1ccc(C(CC(=O)O)NC(=O)COc2ccc3ccccc3c2)cc1OC (stereo unspecified) | -23 | 0.67 | 2.4 | i | 6 | 13 | 0.5 | 3 | -0.2
CCN(CC)S(=O)(=O)c1ccc(Cl)c(NC(=O)COC(=O)c2c(C)noc2C)c1 | -7 | 0.69 | 3.8 | i | nt | nt | nt | 6 | -0.6
CC(C)(C)NS(=O)(=O)c1ccc(NS(=O)(=O)c2ccc(F)cc2)cc1 | 0 | 0.66 | 0.1 | nt | nt | nt | nt | -6 | 0.7
Cc1ccc2c(CN3CCN(Cc4ccccc4)CC3)cc(=O)oc2c1C | nt | 0.68 | 2.6 | i | -1 | 0 | 4.7 | -6 | -0.5
CC(C)C(NC(=O)c1ccccc1)C(=O)NC1=NCCS1 (stereo unspecified) | -8 | 0.68 | 4.6 | nt | nt | nt | nt | 2 | -2.2
O=C(N/N=C/c1cccc([N+](=O)[O-])c1)c1cc(-c2ccc3c(c2)OCO3)n[nH]1 | -4 | nt | nt | i | -12 | 5 | 0.6 | 1 | -1.3
CC1(C(=O)Nc2ccc3c(c2)OCCO3)CN(S(C)(=O)=O)CC(=O)N1Cc1ccco1 (stereo unspecified) | nt | nt | nt | i | 15 | 16 | 4.3 | nt | 2.7
NC(=O)C1(Nc2ccc(Br)cc2)CCCC1 | nt | 0.64 | 1.8 | i | -5 | -3 | 1.8 | -1 | -3.0
CCCc1cc(=O)[nH]c(SCC(=O)NC2CCCCC2)n1 | -3 | 0.68 | 5.6 | i | 17 | 18 | 0.1 | -14 | -1.0
CCCNC(=O)Nc1cc(C)on1 | -3 | 0.66 | -0.4 | nt | nt | nt | nt | 16 | -0.5
Cc1ccc(CNC(=O)CN(C)S(=O)(=O)c2cccc3nsnc23)cc1 | -5 | 0.8 | 7.3 | nt | nt | nt | nt | -16 | 3.8
COc1ccc(NC(=O)CCn2cccc2)c(OC)c1 | -1 | 0.68 | 0.0 | i | 6 | 4 | -3.4 | 12 | 1.4
COc1ccc(-c2nnc(SCCC(=O)O)n2C)cc1OC | -3 | 0.76 | 1.2 | nt | nt | nt | nt | -3 | -0.5
O=C(Cn1ncc2c(=O)oc3ccccc3c21)N1CCN(c2ccccn2)CC1 | -5 | 0.71 | 1.9 | nt | nt | nt | nt | -6 | -3.9
CCN1CCN(c2ccc(NC(=O)c3ccc(Cl)c(N4CCCC4=O)c3)cc2)CC1 | -5 | 0.71 | 0.4 | i | 1 | 8 | 0.1 | 0 | 2.2
CCCCC1=NN(C(=O)c2ccco2)C(O)(C(F)(F)F)C1 (stereo unspecified) | -5 | 0.66 | -1.9 | i | 6 | -5 | 0.4 | -9 | 2.4

Compound activity: PubChem, several laboratories
